From PubChem
Rango dissoc inh: qHTS Assay for Inhibitors of RanGTP induced Rango (Ran-regulated importin-beta cargo) - Importin beta complex dissociation. Snurportin-1 (Homo sapiens) + GTP-binding nuclear protein Ran (Homo sapiens) + Importin …. Biochemical FRET Rango-importin beta, RanGTP-induced dissociation. Potency, µM (series often up to 46.1 µM), for inactives: at the top dose activity change, negative = inhibition. 340,000 tested, 0.071% active; active means falling FRET ratio curve, often poorly fitted, with flat reads before Ran was added; inconclusive means other falling curves, or compound fluorescence or quenching; inactive means flat or rising ratio curve;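 further: potency means the concentration at half of the fitted maximal effect; % of control where 0% means no effect; nearly all actives have a fitted effect of over 45% in size; -100% = wells without RanGTP and RCC1; the record marks most hits as doubtful in a second field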
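Rango (0.1 uM)–importin beta (0.25 uM) complex; RanGTP-RCC1 trigger; 45 min RT; CFP/YFP FRET read.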
GLA inh pH 4.5: qHTS Assay for Inhibitors of Human alpha-Galactosidase at pH 4.5. Alpha-galactosidase A (Homo sapiens), P06280. purified enzyme, 4-MU-alpha-Gal fluorescence, pH 4.5. activity change, negative = inhibition, % at 105 µM. 230,000 tested, under 10 active. AID 1467, 2008; inconclusive = small, poorly fitted or top-dose-only inhibition, or a rising curve; inactive = flat fitted curve, though single readings scatter; no compound was filed as active;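 further: 0% = full activity with enzyme and -100% = basal without enzyme; dose as in the result columns while the protocol names 77 µM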
Rango complex inh: qHTS Assay for Inhibitors of Rango (Ran-regulated importin-beta cargo) - Importin beta complex formation. Potency, µM (highest dose often 92.2 µM), without a hit: top-dose inhibition of complex formation. AID 540263, 2011. Importin subunit beta-1 (Homo sapiens), Q14974. Rango CFP/YFP FRET sensor + importin beta, 45 min. 340,000 tested, 0.031% active; active = rising FRET ratio curve, often small or poorly fitted; inconclusive = mostly compound fluorescence or quenching in the first reads; inactive = flat curves in all reads;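 further: potency means the concentration at half of the fitted maximal effect; 0% = DMSO wells and 100% = buffer wells lacking importin beta; nearly all actives have a fitted effect of over 15% in size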
Target sequence (Q14974 whole entry, looked up): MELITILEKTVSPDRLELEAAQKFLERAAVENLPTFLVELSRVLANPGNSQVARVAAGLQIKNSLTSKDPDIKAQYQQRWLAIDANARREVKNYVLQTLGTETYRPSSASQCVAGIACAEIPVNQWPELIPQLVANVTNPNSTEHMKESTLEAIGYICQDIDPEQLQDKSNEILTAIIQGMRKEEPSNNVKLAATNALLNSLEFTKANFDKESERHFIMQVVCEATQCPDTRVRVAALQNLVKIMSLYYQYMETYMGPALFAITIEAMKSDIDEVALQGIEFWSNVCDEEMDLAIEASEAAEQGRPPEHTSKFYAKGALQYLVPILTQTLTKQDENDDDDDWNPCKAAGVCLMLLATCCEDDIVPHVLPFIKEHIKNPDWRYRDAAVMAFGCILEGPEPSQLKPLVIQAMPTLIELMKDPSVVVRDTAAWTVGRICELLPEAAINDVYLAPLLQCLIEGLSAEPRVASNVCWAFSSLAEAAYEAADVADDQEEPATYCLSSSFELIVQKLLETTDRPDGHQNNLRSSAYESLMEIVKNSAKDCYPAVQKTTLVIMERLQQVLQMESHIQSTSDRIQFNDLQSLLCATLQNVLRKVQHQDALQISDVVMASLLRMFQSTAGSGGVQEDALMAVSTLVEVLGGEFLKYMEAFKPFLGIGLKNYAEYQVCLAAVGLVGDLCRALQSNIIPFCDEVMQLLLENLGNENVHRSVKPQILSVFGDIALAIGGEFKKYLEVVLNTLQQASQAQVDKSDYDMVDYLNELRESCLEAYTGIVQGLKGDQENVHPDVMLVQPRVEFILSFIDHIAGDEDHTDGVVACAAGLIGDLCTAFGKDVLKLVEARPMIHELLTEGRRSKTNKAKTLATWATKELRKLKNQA
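Inhibition scored from the CFP 486 nm/YFP 530 nm FRET ratio 45 min after adding 0.125 microM importin beta to 50 nM Rango biosensor preincubated 5 min with compound (room temperature, PBS with DTT, Tween-20, BSA). No-importin wells as positive control.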
miR-21 FLuc: qHTS Assay for Modulators of miRNAs and/orActivators of miR-21; Potency, µM (series often up to 38.3 µM), inactives show at the top dose reporter change, positive = more light; AID 2288, 2010; HeLa miR-21 FLuc reporter, luciferase, 48 h; 340,000 tested, under 10 active; active = well fitted rising curve with a large enough effect; inconclusive = small, poorly fitted or top-dose-only effect; inactive = no such curve, though single readings can be large or run the other way;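 further: % of control where 0% means no effect; miR-21 action dims this reporter so a rising signal means less miR-21 action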
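Luminescence from a firefly luciferase reporter carrying a miR-21 binding site downstream, stably expressed under a CMV promoter in HeLa cells that make miR-21 endogenously, reports miRNA modulation after 48 h compound exposure up to approximately 40uM final.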
Numbers without * were called inactive; u = inconclusive; x = not tested or not shown; & = joins results of further samples. Only part of the results is shown; the hit share may differ from the screen's.

SMILES	Rango dissoc inh	GLA inh pH 4.5	Rango complex inh	miR-21 FLuc
Cc1onc(-c2c(F)cccc2Cl)c1C(=O)N1CCc2ccccc2C1	-1.3%	4.0	-4.4%	-0.5%
CC(C)(C)C(=O)Nc1ccccc1C(=O)Nc1cccnc1	-7.0%	5.0	0.2%	0.0%
COc1ccc(O)c(/C=c2/sc3nc4cc(C)c(C)cc4n3c2=O)c1	-29.5%	-5.9	0.2%	-6.8%
COc1ccc(C(=O)C(C)OC(=O)c2cccc(S(=O)(=O)Nc3cc(Cl)c(OC)cc3OC)c2)cc1 (centres undefined)	-10.6%	-12.1	-0.9%	20.0%
O=C(C1=C(O)C(=O)N(CCCN2CCOCC2)C1c1ccncc1)c1cc2ccccc2o1 (centres undefined)	x	-2.5	x	-6.0%
Cc1cc(OCC(O)CN2CCc3ccccc3C2)ccc1Cl (centres undefined)	6.5%	x	-4.7%	4.8%
Cc1ccc(N(CC(=O)NCc2ccc(F)cc2)C(=O)c2csnn2)c(C)c1	-5.3%	1.5	1.1%	-0.7%
Cc1cc(C)c(C(=O)C[n+]2cccc(C(N)=O)c2)c(C)c1	5.8%	-3.7	-2.5%	-1.8%
CS(=O)(=O)c1ccc(C(=O)NC2CCCc3ccccc32)cc1 (centres undefined)	-10.8%	4.6	-2.0%	3.0%
CC1CCC2(CC1)Nc1ccccc1C(=O)N2c1ccccc1 (centres undefined)	1.6%	4.3	3.7%	-45.6%
COCCn1c(N)c(N(Cc2ccccc2)C(=O)CN2C(=O)NC(C)(c3ccccc3)C2=O)c(=O)[nH]c1=O (centres undefined)	0.6%	x	-0.2%	-0.2%
COc1ccc(C(=O)NCCCOC(=O)c2ccc(OC)cc2)cc1	-6.6%	x	3.3%	-3.4%

Compounds above that contain a carbonyl joined to an NH by a bond outside any ring, in the order listed:
SMILES	Rango dissoc inh	GLA inh pH 4.5	Rango complex inh	miR-21 FLuc
CC(C)(C)C(=O)Nc1ccccc1C(=O)Nc1cccnc1	-7.0%	5.0	0.2%	0.0%
Cc1ccc(N(CC(=O)NCc2ccc(F)cc2)C(=O)c2csnn2)c(C)c1	-5.3%	1.5	1.1%	-0.7%
Cc1cc(C)c(C(=O)C[n+]2cccc(C(N)=O)c2)c(C)c1	5.8%	-3.7	-2.5%	-1.8%
CS(=O)(=O)c1ccc(C(=O)NC2CCCc3ccccc32)cc1 (centres undefined)	-10.8%	4.6	-2.0%	3.0%
COc1ccc(C(=O)NCCCOC(=O)c2ccc(OC)cc2)cc1	-6.6%	x	3.3%	-3.4%

Remaining list, next part:
SMILES	Rango dissoc inh	GLA inh pH 4.5	Rango complex inh	miR-21 FLuc
COc1ccccc1N1C(=O)CC(Sc2nccc(C)n2)C1=O (centres undefined)	6.2%	-0.9	-0.1%	1.6%
CC(C)Sc1nc2ccccc2n1CC(N)=O	0.9%	-1.3	-1.3%	-2.7%
COc1ccc(CCNC(=O)CCc2ccccc2)cc1OC	-12.7%	x	2.5%	x
COc1ccc(NC(=S)N/C(=N/S(=O)(=O)c2ccc(C)cc2)c2ccccc2)cc1	-3.3%	6.7	1.6%	-50.7%
O=C(CN1CCC(c2nc3ccccc3[nH]2)CC1)Nc1ccc2c(c1)OCO2	6.7%	0.8	6.3%	-0.6%
Cc1ccc(C(=O)N/N=C2\SCC(=O)N2c2cc(C)ccc2C)cc1	8.8%	0.2	0.4%	-5.7%
O=C(Cc1ccccc1)Nc1nnc(-c2cccs2)s1	3.1%	2.4	1.2%	-43.3%
O=C(NCc1ccc(F)cc1)C1(c2cccs2)CCOCC1	-21.4%	-2.1	2.4%	19.4%&-7.8%
COc1ccccc1C1c2[nH]c3ccccc3c2CCN1Cc1cnc(C)s1 (centres undefined)	-23.2%	-8.0	u	1.9%
COc1ccc(CC(NC(C)=O)C(=O)NC2CCN(C(=O)Nc3ccc(Cl)cc3)CC2)cc1OC (centres undefined)	-2.5%	-0.4	-3.3%	-6.6%
Cc1nc2ccccc2n1C(=O)c1cc(-c2ccc(Br)cc2)nc2ccccc12	13.9%	-11.8	1.9%	-23.6%
COc1ccc(C(=O)c2c(-c3ccc(OC)cc3)oc3ccc(-c4cc(OC)c(OC)c(OC)c4)cc23)cc1	1.7%	x	u	x

An excerpt from above in order of the miR-21 FLuc value, smallest number first.
SMILES	Rango dissoc inh	GLA inh pH 4.5	Rango complex inh	miR-21 FLuc
Cc1nc2ccccc2n1C(=O)c1cc(-c2ccc(Br)cc2)nc2ccccc12	13.9%	-11.8	1.9%	-23.6%
O=C(CN1CCC(c2nc3ccccc3[nH]2)CC1)Nc1ccc2c(c1)OCO2	6.7%	0.8	6.3%	-0.6%
COc1ccccc1N1C(=O)CC(Sc2nccc(C)n2)C1=O (centres undefined)	6.2%	-0.9	-0.1%	1.6%
COc1ccccc1C1c2[nH]c3ccccc3c2CCN1Cc1cnc(C)s1 (centres undefined)	-23.2%	-8.0	u	1.9%

Next records follow.
SMILES	Rango dissoc inh	GLA inh pH 4.5	Rango complex inh	miR-21 FLuc
COc1ccc(N(CC(=O)Nc2ccc3c(c2)OCCO3)S(=O)(=O)c2c(C)nn(C)c2C)cc1	-5.2%	0.4	-5.6%	-1.0%
COC(=O)C(C)Sc1nc2c(cnn2-c2ccccc2)c(=O)[nH]1 (centres undefined)	-3.7%	-19.2	1.1%	3.0%
Cc1ccc(/C=[N+](/[O-])C2SC(=S)N(C)C2(C)C)cc1 (centres undefined)	-8.7%	-6.8	1.4%	-0.1%
COc1ccc(OCc2cc(C(=O)NC(C)Cn3cncn3)no2)c(Cl)c1 (centres undefined)	13.5%	x	2.5%	-37.0%
Cc1ccc(C)c(-n2c(-c3ccc(Br)cc3)csc2=NC(=O)c2ccccc2F)c1	14.7%	u	5.1%	0.5%
Cc1ccc(-c2csc3ncnc(OCC(=O)NC(=O)NCc4ccco4)c23)cc1	-7.3%	-7.2	-1.0%	-4.6%
O=S(=O)(O/N=C1\CCCc2ccccc21)c1ccccc1	8.5%	8.7	0.0%	-5.1%
Cc1nonc1C1CCCN1Cc1nc(-c2ccc(F)cc2F)oc1C (centres undefined)	-4.5%	0.2	-3.5%	-2.7%
c1ccc(-n2ncc3c(N4CCN(c5ccccn5)CC4)nc(N4CCOCC4)nc32)cc1	x	-3.4	x	-3.3%
Cc1nc(SCC(=O)NCc2ccco2)c2c(C)c(C)sc2n1	-2.5%	-1.8	-0.8%	-6.8%
Cc1nn(CCCC(=O)NCc2ccccc2)c(=O)c2nn(-c3ccccc3)c(C)c12	-18.2%	x	-5.4%	1.0%&13.1%
CCN(CC)C(=S)Oc1ccc(Cl)cc1Cl	9.9%	-11.3	-1.4%	-0.7%
CSc1ccc(C(=S)N2CCCCCC2)cc1	12.5%	x	-0.5%	-11.4%
Cc1ccc(C2CC2C(=O)NN)cc1 (centres undefined)	-7.6%	-10.2	2.1%	-0.2%
COc1ccccc1NC(=O)Nn1cnnc1	-10.1%	4.1	0.8%	-2.1%
CCOC(=O)c1[nH]c2ccc(Br)cc2c1NC(=O)CCN1CCC(C(=O)OCC)CC1	6.3%	-9.2	-2.7%	-6.5%
Cc1ccc(NC(=O)NCC2CCN(Cc3cccc(Cl)c3)CC2)cc1Cl	1.1%	-2.5	u	29.4%&7.8%
CCOC(=O)c1sc(NC(=O)CSc2nc3c(c(-c4ccc(OC)cc4)c2C#N)CCCC3)c(C#N)c1C	u	-2.9	u	-7.8%
CCC(=O)NC(c1cc(Cl)c2cccnc2c1O)C1CC1 (centres undefined)	-9.3%	x	0.2%	x
Nc1cc(N)nc(SCc2ccccc2)n1	-1.8%	-6.6	u	-58.3%
O=S(=O)(c1ccccc1)N1CCC2(CC1)CO2	-2.6%	1.1	-0.5%	-1.2%
CCc1nnc(NC(=O)CC23CC4CC(CC(Br)(C4)C2)C3)s1	18.3%	x	3.9%	7.4%
O=C(Nc1ccc(N2CCOCC2)c(Cl)c1)c1cccc(-n2cnnc2)c1	21.6%	x	0.0%	-11.7%
Cc1onc(-c2ccccc2)c1C(=O)NC(=S)NNC(=O)c1ccc(O)cc1	16.5%	-1.7	3.1%	29.6%
CC1CCCCN1CC(O)COCc1ccccc1 (centres undefined)	-7.8%	x	0.4%	-0.7%
c1ccc(C2=NNC(c3ccco3)=Nc3ccccc32)cc1	2.1%	9.5	-5.9%	-10.0%
Cc1cc(OCC(=O)Nc2cccc(S(=O)(=O)N3CCCC3)c2)ccc1Cl	-6.6%	x	0.2%	x
COc1ccc(C(=O)N[C@H](C(=O)NC2CCCCC2)C(C)C)cc1	3.9%	x	u	x
CN1CCN(CC(O)c2ccccc2)CC1 (centres undefined)	x	2.4	x	-0.4%
Cc1ccc(S(=O)(=O)n2cccc2CO)cc1	-14.1%	x	-3.6%	x
CSc1cccc(NC(=O)NNC(=O)C2CCN(S(=O)(=O)N(C)C)CC2)c1	18.6%	x	10.7%	0.3%
COc1ccc(OC)c(NC(=O)CSc2nc(O)cc(=O)n2CC(C)C)c1	-11.8%	x	-3.2%	x
O=C1/C(=C\c2ccccn2)SC(=S)N1Nc1ncc(C(F)(F)F)cc1Cl	13.6%	-0.4	-1.1%	-4.3%
COCC(=O)N1CCC2CC1c1cc(Cl)ccc12 (centres undefined)	5.6%	x	0.4%	x
CC(C)C1OC(c2cccc(NC(=O)c3cccs3)c2)OCC1(C)C (centres undefined)	-8.6%	-7.5	-2.7%	18.9%
O=C(Nc1cc(Cl)ccc1N1CCOCC1)c1ccc(Br)o1	12.0%	x	1.8%	-55.5%
COc1cccc(C2C(C#N)=C(N)Oc3cc(C)oc(=O)c32)c1OC (centres undefined)	-16.0%	2.5	u	6.2%
CC1CCCC(NC(=O)CCn2c(=O)oc3ccccc32)C1C (centres undefined)	1.2%	-21.3	-4.0%	-5.5%
CN(C)/C=C/c1onc(-c2ccccc2Cl)c1C#N	18.7%	-8.2	1.7%	-16.0%
O=S(=O)(Nc1ncnc2sccc12)c1cccc(F)c1	-8.4%	x	u	x
COc1ccc(C2(C(F)(F)F)NC(=O)N(C)C(=O)N2C)cc1 (centres undefined)	-11.3%	-1.4	2.7%	0.2%
COc1ccc(NC(=O)NCCCN2CCCCC2C)cc1 (centres undefined)	3.5%	0.3	-1.7%	-4.5%
CS(=O)(=O)N(CC(=O)NCCSCc1ccccc1)c1ccccc1Cl	0.0%	x	1.7%	5.4%
Cc1oc2c(C)c3oc(=O)c(CCC(=O)N4CCC(C(=O)NCCC(=O)O)(c5ccccc5)CC4)c(C)c3cc2c1C	-9.6%	x	u	1.7%
O=C(Nc1cc(N2CCOCC2)ncn1)c1ccccc1	-7.2%	9.1	7.5%	-30.9%
CC(C)(C)OC(=O)N[C@@H](Cc1ccccc1)C(=O)NCC1CCC(C(=O)O)CC1 (some centres undefined)	-15.3%	1.1	3.6%	-0.5%
Cc1ccc(NC(=S)N/N=C/c2c(C)[nH]c3ccccc23)cc1	9.3%	-8.6	5.3%	-19.6%
CCOC(=O)c1cc(N2CCCCC2)nc2ccccc12	u	x	u	x
CC(=O)Oc1ccc2c(=O)c(-c3ccccc3)c(C)oc2c1	13.2%	0.6	-0.4%	-32.9%
CCC1(C)Cc2ccccc2-c2nc(NCCCO)n(-c3ccccc3)c(=O)c21 (centres undefined)	10.1%	6.5	-5.5%	14.0%
COCCCNC(=O)/C=C/c1ccc(OCc2c(F)cccc2Cl)cc1	-4.9%	0.5	-1.4%	25.6%
